miR-21 FLuc – qHTS Assay for Modulators of miRNAs and/orActivators of miR-21; HeLa miR-21 FLuc reporter, luciferase, 48 h; Potency, µM (doses to about 38.3 µM), for inactives: top-dose reporter change, positive = more light; 340,000 tested, under 10 active; AID 2288, 2010; active = well fitted rising curve with a large enough effect; inconclusive = small, poorly fitted or top-dose-only effect; inactive = no such curve, though single readings can be large or run the other way;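 also: % of control where 0% means no effect; miR-21 action dims this reporter so a rising signal means less miR-21 action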
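HeLa miR-21-FLuc reporter line, endogenous miR-21; 2000 cells/well in DMEM/10% FBS; compound titration up to ~40uM final, 48 h, 37 degree Celsius; luciferase detection reagent, 15 min lysis, CCD luminescence.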
* = called active by the depositor; ? = inconclusive.

molecule,miR-21 FLuc
COc1ccccc1NC(=O)Cn1c(=O)n(Cc2ccccc2)c(=O)c2sc3ccccc3c21,-5%
CCn1c(=O)cc(OCC(=O)N2CCN(c3ccccc3OC)CC2)c2ccccc21,0%
CC(=O)c1cccc(NC(=O)Cn2c(=O)oc3cc(S(=O)(=O)NC4CCCC4)ccc32)c1,0%
Cc1cc(C)cc(NC(=O)c2cc(CN3CCCC3)on2)c1,-66%
O=C(NCCc1csc(-c2ccc(F)cc2)n1)c1cccs1,12%
Cc1ccc(CNC(=O)CSc2n[nH]c(-c3ccc(F)cc3)n2)cc1,7%
Cc1ccc2sc(N(CCCN(C)C)C(=O)c3ccco3)nc2c1C,3%
CCOC(=O)c1ccc(N2C(=O)c3n[nH]c(-c4ccco4)c3C2c2cccc(OC)c2)cc1 (stereo not drawn),?
CCCn1c(=O)sc2cc(NC(=O)c3ccccc3OCC)ccc21,-13%
CC(C)c1nn2c(=O)cc(COC(=O)c3ccco3)nc2s1,-4%
CCc1ccc(-n2c(=O)c3c4c(sc3n(Cc3ccc(C)cc3)c2=O)CCC4)cc1,1%
Fc1ccc(-n2ncc3c(Nc4ccc(Oc5ccc(Cl)cc5)cc4)ncnc32)cc1,2%

Next records.
molecule,miR-21 FLuc
CCCCNC(=O)C1CCN(S(=O)(=O)c2cc(Br)cc3c2N(C(=O)CC)CC3)CC1,-1%
CCOc1ccc(NC(=O)CSc2ccc3ccccc3n2)cc1,-50%
O=C(COc1ccccc1)Nc1sc2c(c1C(=O)Nc1ccccc1)CCCCC2,-8%
Cc1nnc(N2CCC(C(=O)NCc3ccc(F)cc3)CC2)c2nn(-c3ccc(Cl)cc3)c(C)c12,-9%
CCCCC(CC)CNC(=O)c1ccc(Cn2c(=O)[nH]c3cc(OC)c(OC)cc3c2=O)cc1 (stereo not drawn),1%
CCOC(=O)c1c(C)n(-c2ccccc2)c2ccc(OC(=O)c3ccc(OCC)c(OCC)c3)cc12,-10%
COc1ccccc1CNC(=O)C1(c2cccs2)CCOCC1,-6%
Cc1nc(N2CCOCC2)c2c(C(=O)NCc3cccc(Cl)c3)c(C)oc2n1,-1%
COc1ccc(N(C(=O)COc2ccccc2OC)S(=O)(=O)c2ccc(Cl)cc2)cc1,-3%
Cc1ccc(Cn2cc(CCC(=O)NC3CCCCC3)c3ccccc32)cc1,-1%
COc1ccc(CN(CCC(c2ccc3c(c2)OCO3)c2ccccc2OC)C(C)=O)cc1 (stereo not drawn),5%
COc1ccc(-n2c(SCC(=O)c3ccccc3)nc3c([nH]c4ccccc43)c2=O)cc1,0%

Additional structures
molecule,miR-21 FLuc
COc1ccc(OC)c(Nc2nc3ccccc3n3c(C)nnc23)c1,0%
CCOC(=O)c1ccc(N2C(=O)c3n[nH]c(C)c3C2c2ccc(C(C)(C)C)cc2)cc1 (stereo not drawn),1%
COc1ccc(N2CC3=C(C2=O)C(c2ccc(Br)cc2)NC(=O)N3C)cc1 (stereo not drawn),?
O=C(Nc1cccc(Cl)c1Cl)c1cc(S(=O)(=O)NCc2ccc3c(c2)OCO3)ccc1F,-4%
CCOC(=O)c1ccc(NC(=O)c2ccc(-c3cccc(Cl)c3C)o2)cc1,-1%
Cc1cc(C)nc(NS(=O)(=O)c2ccc(NC(=O)COc3ccc(Cl)cc3C)cc2)n1,-17%
Cc1ccn2c(=O)c(NC(=O)c3cccc([N+](=O)[O-])c3C)c(C)nc2c1,22%
COc1ccc(N2CCN(S(=O)(=O)c3c(C)[nH]c(=O)[nH]c3=O)CC2)cc1,0%
Cc1ccc(Cl)cc1NC(=O)NCc1cccn1Cc1ccc(F)cc1,1%
CC(C)(C)c1ccc(C(=O)N(Cc2ccc(F)cc2)Cc2ccco2)cc1,?
CCCCC12CN3CC(C)(CN(C1)C3c1c(C)[nH]c(=O)[nH]c1=O)C2=O (stereo not drawn),8%
Cc1ccc(CNC(=O)c2c(-c3ccccc3F)noc2C)o1,-4%

Later entries
molecule,miR-21 FLuc
COc1ccccc1CCNC(=O)c1ccc2c(c1)c(C)c(C)n2Cc1ccc(Cl)cc1,11%
CCCCc1ccc(NC(=O)C2(C)Cc3ccccc3C(=O)O2)cc1 (stereo not drawn),-12%
CC1=C(c2ccc(C)cc2)S(=O)(=O)NC1=NCCCN1CCN(c2ccccc2F)CC1,-11%
Cc1cc(C(=O)Nc2cccc(F)c2)c2c(C)nn(-c3cccc(Cl)c3C)c2n1,21%
O=C(NCCn1cc(SCc2ccccc2F)c2ccccc21)c1cccs1,?
CCCN(c1ccc(C(C)C)cc1)S(=O)(=O)c1ccc2c(c1)CCN2C(=O)CC,-4%
CC1=C(C(=O)OC2CCCC2)C(c2c(Cl)cccc2Cl)CC(=O)N1 (stereo not drawn),22%
CN(Cc1ccccc1)C(=O)Cn1ncc2c3ccccc3n(Cc3cccc(Cl)c3)c2c1=O,-4%
CCc1ccccc1NC(=O)CCNS(=O)(=O)c1ccc2c(c1)CCN2C(=O)C1CC1,-8%
COc1ccc(OC)c(CNC(=O)C2CCN(c3ncnc4c3nc3n4CCCCC3)CC2)c1,-4%
COc1ccc(NC(=O)Nc2nnc(N3CCCCCC3)s2)c(OC)c1,-1%
O=C(CN1CCCN(S(=O)(=O)c2ccc(Br)cc2)CC1)Nc1cccc(C(F)(F)F)c1,17%

The listing continues:
molecule,miR-21 FLuc
Cc1noc(/C=C/c2ccccc2F)c1S(=O)(=O)N1CCC(C(=O)N(C)Cc2ccco2)CC1,2%
O=C(NCCC1=CCCCC1)c1ccc2c(c1)N(Cc1cccc(Cl)c1)C(=O)c1ccccc1S2=O (stereo not drawn),2%
O=c1nc2n(-c3ccccc3F)c3ccccc3cc-2c(=O)[nH]1,-24%
Cc1ccc(N(CC(O)Cn2c3ccccc3c3ccccc32)S(=O)(=O)c2ccc(F)cc2)cc1 (stereo not drawn),?
COc1ccc(-c2nc(SCC(=O)NCCCc3ccccc3)n[nH]2)cc1,3%
CN1CCN(C(c2ccc(F)cc2)c2sc3nc(-c4ccco4)nn3c2O)CC1 (stereo not drawn),-5%
Cc1cc(C)n2c(Nc3ccc4c(c3)OCCO4)c(-c3ccc(Cl)cc3)nc2n1,-15%
COC(=O)c1sc(N2C(=O)c3oc4ccc(C)cc4c(=O)c3C2c2ccc(O)c(OC)c2)nc1C (stereo not drawn),-8%
Cc1cc2nc(-c3cccc(NC(=O)COc4ccc(Cl)c(C)c4)c3)oc2cc1C,-45%
O=C(O)C1=CC(c2ccc(Br)cc2)n2ncnc2N1 (stereo not drawn),-1%
CCOc1ccc(CNC(=O)CCS(=O)(=O)c2cc3c4c(c2)CCN4C(=O)CC3)cc1,2%
CCCSc1nnc2c(n1)OC(c1cccs1)Nc1ccc(Br)cc1-2 (stereo not drawn),-29%

Reprinted from the part before: 4 compounds, then new ones.
molecule,miR-21 FLuc
Cc1cc2nc(-c3cccc(NC(=O)COc4ccc(Cl)c(C)c4)c3)oc2cc1C,-45%
O=C(O)C1=CC(c2ccc(Br)cc2)n2ncnc2N1 (stereo not drawn),-1%
CCOc1ccc(CNC(=O)CCS(=O)(=O)c2cc3c4c(c2)CCN4C(=O)CC3)cc1,2%
CCCSc1nnc2c(n1)OC(c1cccs1)Nc1ccc(Br)cc1-2 (stereo not drawn),-29%
CCN(C(=O)c1ccc(C(=O)N(CC)c2ccccc2C)cc1)c1ccccc1C,7%
CCc1ccccc1NC(=O)CSc1nnc(COc2ccccc2Cl)o1,-12%
COc1ccc(CCNC(=O)CCc2c(C)nc3nc(C)nn3c2C)cc1OC,1%
CCCSc1ncc(Cl)c(C(=O)N(Cc2ccc(Cl)cc2)Cc2ccco2)n1,17%
COc1ccc(NC(=O)CSC2=Nc3ccccc3C3=NC(CCC(=O)NCc4ccco4)C(=O)N23)cc1 (stereo not drawn),-3%
Cc1ccc(NC(=O)N2CCc3c([nH]c4ccccc34)C2c2ccccc2F)c(Cl)c1 (stereo not drawn),22%
COc1ccc(-c2nc3cc(C)ccn3c2NC(=O)c2cccc(F)c2)cc1,0%
Cc1ccc(C)c(N2CCN(S(=O)(=O)c3ccc(C4CCCCC4)cc3)CC2)c1,3%
CCC1=Nc2cc(C(=O)N3CCC(C)CC3)ccc2Sc2ccc(C)cc21,-6%
CC(C)Cn1c(=O)c2sccc2n2c(CCCC(=O)N3CCN(c4ccc(F)cc4)CC3)nnc12,-7%
COc1ccc(-c2nc3scc(CCNS(=O)(=O)c4ccc(NC(C)=O)cc4)n3n2)cc1,-1%
Cc1ccc(-c2nc3nc(C)cc(N4CCN(c5cc(Cl)ccc5C)CC4)n3n2)cc1,-1%

The final 3 records of the section before come first, to join the parts:
molecule,miR-21 FLuc
CC(C)Cn1c(=O)c2sccc2n2c(CCCC(=O)N3CCN(c4ccc(F)cc4)CC3)nnc12,-7%
COc1ccc(-c2nc3scc(CCNS(=O)(=O)c4ccc(NC(C)=O)cc4)n3n2)cc1,-1%
Cc1ccc(-c2nc3nc(C)cc(N4CCN(c5cc(Cl)ccc5C)CC4)n3n2)cc1,-1%
COc1ccc(CCNC(=O)c2cc3c(=O)[nH]c4ccc(C)cc4c3s2)cc1OC,-2%
CCOc1ccc(NC(=O)C2CCN(S(=O)(=O)c3c(C)noc3/C=C/c3cccs3)CC2)cc1,1%
COC(=O)c1ccc(NC(=O)CC2C(=O)N(c3cccc(OC)c3)C(=O)N2Cc2ccco2)cc1 (stereo not drawn),-1%
CC(C(=O)NCc1ccccc1)N1Cc2ccccc2C1=O (stereo not drawn),-2%
CN(C)c1ccc(CNC(=O)Cn2c(=O)oc3cc(S(=O)(=O)NCc4ccccc4)ccc32)cc1,18%
COc1ccc(-c2nc(SCC(=O)NCc3ccccc3Cl)n[nH]2)cc1,16%
COc1ccc(NC(=O)Cn2nc(-c3ccccc3)c3cnc4ccc(C)cc4c32)cc1,-6%
COc1ccccc1CNC(=O)Cn1c(=O)oc2cc(S(=O)(=O)NCc3ccccc3)ccc21,18%
CC(C)(C)OC(=O)N1CCC(c2c(C(=O)NCc3ccccc3)cnn2-c2ccccc2)CC1,7%
CCN1CCC(N(Cc2ccc(F)cc2)C(=O)Nc2cc(C)ccc2C)CC1,-8%
COc1ccc(NC(=O)CC2C(=O)N(c3ccc(C)cc3)C(=O)N2Cc2ccc3c(c2)OCO3)cc1 (stereo not drawn),-5%
Cc1cc(C)c2oc(-c3cccc(NC(=O)c4cccc(F)c4)c3C)nc2c1,-7%

The list goes on.
molecule,miR-21 FLuc
CCOc1ccc(-c2nnc(SCC(=O)Nc3ccccc3C(F)(F)F)o2)cc1,-1%
Cc1nnc(N2C(=O)c3oc4ccccc4c(=O)c3C2c2ccc(Cl)cc2)s1 (stereo not drawn),4%
Cc1ccc(-n2nnc(-c3nsc(NC(=O)c4ccccc4C)n3)c2C)cc1Cl,-35%
Cc1ccc(OCCn2c(-c3ccc(Br)cc3)nc3ccccc3c2=O)cc1C,-19%
Cc1cccc(NS(=O)(=O)c2ccc3c(c2)CCCN3C(=O)C2CCC2)c1C,-4%
O=C(Nc1ccc(Cl)c(-c2nc3cc(Cl)ccc3o2)c1)c1cc2ccccc2o1,-27%
COc1ccc2nc(NC(=O)c3nc(SCc4ccccc4F)ncc3Cl)sc2c1,3%
Cc1oc2ccc(O)c(CN3CCOCC3)c2c1C(=O)Nc1ccc(C(C)C)cc1,12%
COc1ccccc1CNS(=O)(=O)c1ccc2c(c1)NC(=O)C(C)C(=O)N2 (stereo not drawn),6%
CCOc1ccccc1NC(=O)N(Cc1ccc(F)cc1)C1CCN(CC)CC1,7%
Cc1ccccc1CNC(=O)c1ccc(NC(=O)N2CCCCc3ccccc32)cc1,-3%
O=C(Nc1ccccc1F)C1CCN(S(=O)(=O)c2ccc3c(c2)CCCN3C(=O)C2CCC2)CC1,0%

Going on with the list.
molecule,miR-21 FLuc
CCS(=O)(=O)N1CCc2cc(C(=O)NCc3ccc(Cl)cc3)ccc21,2%
COc1ccccc1/C=C/c1nc(C#N)c(N2CCCCCC2)o1,-1%
CCOc1ccc(N(CC)C(=O)c2noc3c2COc2ccc(C)cc2-3)cc1,-11%
CCOC(=O)c1cccc(NC(=O)CCc2c(C)nn(-c3ccc(N4CCCC4)nn3)c2C)c1,-3%
CC(=O)c1ccc(N2CCN(S(=O)(=O)c3ccc4c(c3)CC(C)N4C(=O)C3CCC3)CC2)cc1 (stereo not drawn),-1%
N#C/C(=C/c1ccc(O)cc1)c1nc(-c2ccc(-c3ccccc3)cc2)cs1,-56%
CC(C)(Oc1ccc(Cl)cc1)C(=O)Nc1nc2ccc(S(C)(=O)=O)cc2s1,4%
COc1ccccc1NC(=O)C1CCN(C(=O)c2sc3nc[nH]c(=O)c3c2C)CC1,1%
CCOc1ccc(CNC(=O)c2ccc3[nH]c(C)c(C)c3c2)cc1OC,-15%
CCCCN(CC)CCCNC(=O)CS(=O)(=O)Cc1nc(-c2ccc(C)cc2)oc1C,0%
CCOc1ccc(-c2cc(NC(=O)c3ccccc3)c(C(=O)OC)s2)cc1,-4%
CCOC(=O)CSc1nc2ccc(NC(=O)COc3ccc(F)cc3)cc2s1,-2%

Next part
molecule,miR-21 FLuc
COc1ccc(-c2c(C)c3cc(OC(=O)N4CCOCC4)ccc3oc2=O)cc1,-14%
COc1cccc(CNC(=O)CN2C(=O)CSc3c2c(C)nn3-c2ccccc2)c1OC,8%
Cc1cc(=O)n(Cc2cccc(Br)c2)c2c1c(C)nn2-c1ccccc1,1%
COc1ccccc1NC(=O)NCc1cccn1Cc1ccccc1,-2%
Cc1c(F)cccc1NS(=O)(=O)c1cccs1,-6%

Screening data from PubChem BioAssay.

Only part of the results is shown, so the mix of outcomes need not match the whole.
